Screens from PubChem.
Vif TR-FRET: inhibitors of Vif binding to APOBEC3G peptide, primary screen, biochemical, TR-FRET, GST-Vif 1-94, biotin-A3G peptide, dose response retest (AID 1117319). hit rate 0.57% among 260,000. inhibition, %; hits with a dose series show IC50 in µM. Virion infectivity factor (Human immunodeficiency virus type 1 group M subtype B (isolate …. TR-FRET GST-Vif / biotin-A3G peptide binding; higher % means a stronger effect; test concentration not given here; strong numbers were not always called active;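 active = above the screen mean plus three standard deviations and confirmed in dose response; inconclusive = results disagree or hit not tested in dose response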;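 also: Vif residues 1-94 fused to GST binding biotinylated APOBEC3G peptide 110-148; 0% = full assay without inhibitor and 100% = GST in place of GST-Vif; retest series ran down from 100 µM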
RanGTP-Imp inh: inhibitors of RanGTP-importin-beta interaction, primary screen, biochemical, FRET, CFP-Ran, YFP-importin-beta, homogeneous; Ran GTPase (GTP-bound) - importin-beta complex; cell-free CFP-Ran/YFP-importin-beta FRET ratio; inhibition, % (test concentration not listed); hit rate 1.1% among 300,000;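 active = most replicates above 15%; inconclusive = exactly half above 15%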;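 also: 0% = DMSO wells and 100% = Ran loaded with GDP instead of GTP; wells of about 40 µL received 100 nL stock; the first replicate is given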
FGF22 binding: binders of human FGF22 protein, primary screen, FGF22 synaptogenesis inhibitor project, biophysical, thermal shift, single point; Fibroblast growth factor 22 (Homo sapiens), Q9HCT0; recombinant FGF22 thermal shift, SYPRO orange fluorescence; percent of sucrose octasulfate shift, DMSO zero; calls only at 9.99 µM; hit rate 1.5% among 340,000;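 active = melting point raised past a set limit in the mean and every replicate; inconclusive = no clear call; three in four hits are not shown here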
Target sequence (Q9HCT0 whole entry, looked up): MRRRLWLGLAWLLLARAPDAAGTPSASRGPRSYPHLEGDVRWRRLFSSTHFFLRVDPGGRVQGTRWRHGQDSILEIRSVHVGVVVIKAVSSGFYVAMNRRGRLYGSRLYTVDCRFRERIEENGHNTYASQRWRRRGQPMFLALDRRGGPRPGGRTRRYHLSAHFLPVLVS
HNF4A DNA FP: change in binding of human HNF4A to DNA, primary screen, biochemical, fluorescence polarization, FITC-DNA | Hepatocyte nuclear factor 4-alpha (Homo sapiens), P41235 | 1 h | activity change, % at 10 µM | hit rate 0.3% among 360,000 | AID 1224865, 2016; in the data active = activity change above about 30%, passing the limit was not always enough;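 also: controls were the assay level and a saturating level of protein; the project sought stronger binding though the title names inhibitors; some compounds called inactive have numbers as strong as hits; positive values seem to mean higher polarization but the record does not say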
AF4-AF9 inh: inhibitors of AF4 peptide binding to AF9, primary screen, biochemical, AlphaScreen, biotin-AF4 peptide, FLAG-AF9, single point | Protein AF-9 (Homo sapiens), P42568 | inhibition, % at 10 µM | hit rate 0.47% among 350,000 | AID 651704, 2012;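 active = every replicate reaching a set inhibition limit, whatever the replicate mean, cut at about 25% in these data; inconclusive = mean inhibition reaches that limit but some replicates miss it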;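 also: 0% = plate neutral control median and 100% = total signal loss; the record names both 10 and 1 µM as test concentration; the first replicate is given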
Target sequence (P42568 whole entry, looked up): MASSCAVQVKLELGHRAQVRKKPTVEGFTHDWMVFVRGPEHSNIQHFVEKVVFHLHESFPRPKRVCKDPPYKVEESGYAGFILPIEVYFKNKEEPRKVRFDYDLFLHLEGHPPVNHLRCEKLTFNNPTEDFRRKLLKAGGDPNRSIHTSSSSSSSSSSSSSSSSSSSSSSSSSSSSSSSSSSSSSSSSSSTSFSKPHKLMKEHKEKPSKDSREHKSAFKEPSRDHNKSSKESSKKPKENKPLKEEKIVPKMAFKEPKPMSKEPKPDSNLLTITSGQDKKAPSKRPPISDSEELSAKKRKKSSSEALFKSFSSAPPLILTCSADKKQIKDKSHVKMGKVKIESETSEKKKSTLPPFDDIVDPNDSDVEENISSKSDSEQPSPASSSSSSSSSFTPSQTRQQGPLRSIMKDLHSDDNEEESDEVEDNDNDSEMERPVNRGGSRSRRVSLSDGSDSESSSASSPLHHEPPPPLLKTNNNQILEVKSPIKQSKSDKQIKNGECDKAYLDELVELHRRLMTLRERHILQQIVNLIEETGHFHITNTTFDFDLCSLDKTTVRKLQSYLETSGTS
Ecoli growth: E. coli growth inhibition, primary screen, OD600; OD600 absorbance (concentration not given with the values); Escherichia coli growth, 23 h; stronger effect = lower value; AID 1053175, 2014; hit rate 0.21% among 330,000;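 active = OD600 absorbance below the run mean of sample wells minus 3.6 SD, in any replicate, cut at about 0.56 in these data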;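 also: stock transfer was 300 nL into about 60 µL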
UCH37 inh: inhibitors of human UCH37 deubiquitinase, primary screen, biochemical, Ub-AMC cleavage, fluorescence. purified proteasome/UCH37. hit rate 0.33% among 330,000. inhibition, % (concentration not given with the values). AID 588478, 2011;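 active = mean of two replicates above 20%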;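 also: 0% = compound-free wells with enzyme and 100% = wells lacking proteasome; stock transfer was 100 nL into about 20 µL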
Target sequence (Q9Y5K5 whole entry, looked up): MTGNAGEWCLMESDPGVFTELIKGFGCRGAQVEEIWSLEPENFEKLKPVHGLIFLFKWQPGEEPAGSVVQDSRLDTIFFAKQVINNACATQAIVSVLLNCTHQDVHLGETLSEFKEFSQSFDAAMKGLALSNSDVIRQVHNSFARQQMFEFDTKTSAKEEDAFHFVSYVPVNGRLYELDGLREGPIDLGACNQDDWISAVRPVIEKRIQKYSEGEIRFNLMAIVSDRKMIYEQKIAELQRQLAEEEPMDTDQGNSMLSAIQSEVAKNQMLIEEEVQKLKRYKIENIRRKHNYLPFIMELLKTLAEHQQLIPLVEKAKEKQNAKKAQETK
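Test system – human UCH37 enzyme supplied as purified proteasome complex · Incubation – 30 min preincubation with enzyme, 25 min cleavage at room temperature · Detection – AMC fluorescence from Ub-AMC cleavage, excitation 355 nm, emission 460 nm · Benchmarks – no-proteasome wells (full inhibition) and compound-free wells (no inhibition)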
Active calls of the source: *; & = joins results of further samples.

How did COc1ccc(S(=O)(=O)NCC2CCCN(C(=O)CCSC)C2)cc1 (stereo not drawn) do in these assays?
RanGTP-Imp inh: 3.6; FGF22 binding: inactive; HNF4A DNA FP: 3.7; AF4-AF9 inh: -1.5; Ecoli growth: 0.63; UCH37 inh: 0.6

Results for CC1=NN(c2cccc(C(=O)O)c2)C(=O)/C1=C\C=C\c1ccco1 ?
Vif TR-FRET: 2.9µM*; RanGTP-Imp inh: -9.0; HNF4A DNA FP: -50; Ecoli growth: 0.75; UCH37 inh: 15

Results for N#CCCN(C(=O)COC(=O)c1cc2ccccc2oc1=O)c1ccccc1 ?
FGF22 binding: inactive; HNF4A DNA FP: -0.4; AF4-AF9 inh: -4.2; Ecoli growth: 0.68; UCH37 inh: -8.8

Results for O=C(O)CCN1C(=O)CC2(CCCCC2)C1=O ?
Vif TR-FRET: -3%; RanGTP-Imp inh: 1.0; HNF4A DNA FP: -0.9; Ecoli growth: 0.76; UCH37 inh: 2.9

How did Cc1cc(C)n2nc(C(=O)OCC(=O)N(Cc3ccccc3)C(C)C)nc2n1 do in these assays?
Vif TR-FRET: -9%; FGF22 binding: inactive; HNF4A DNA FP: 4.4; AF4-AF9 inh: -5.8; Ecoli growth: 0.71; UCH37 inh: -2.7

Results for C=C(C)c1nc(Oc2ccccc2)nc(Oc2ccccc2)n1 ?
Vif TR-FRET: -2%; FGF22 binding: inactive; HNF4A DNA FP: 5.5; AF4-AF9 inh: -57

Results for CC(C)C[C@@H](CN1CCCC1CN1C(=S)NC[C@@H]1Cc1ccc(O)cc1)N1C[C@H](Cc2ccc(O)cc2)N(CC2CCCCCC2)C1=S (stereo partly drawn) ?
Vif TR-FRET: -3%; FGF22 binding: inactive; HNF4A DNA FP: 0.7; AF4-AF9 inh: 9.8

What do the screens show for `COC(=O)C1=C(C)N(Cc2ccccc2)C(=NCCc2cccnc2)N[C@H]1c1ccccc1`?
RanGTP-Imp inh: -1.0; HNF4A DNA FP: 4.8; UCH37 inh: -1.0

Results for NC(=O)CSc1nc(C23CC4CC(CC(C4)C2)C3)nc2ccccc12 ?
Vif TR-FRET: 1%; RanGTP-Imp inh: -1.0; FGF22 binding: inactive; HNF4A DNA FP: 1.1; AF4-AF9 inh: -2.6; Ecoli growth: 0.65; UCH37 inh: 0.9

Results for CN(C)CCN(C(=O)c1ccc(S(=O)(=O)N2CCCC2)cc1)c1nc2ccc(Br)cc2s1 ?
RanGTP-Imp inh: 1.8; FGF22 binding: inactive; HNF4A DNA FP: 1.8; AF4-AF9 inh: 3.7; Ecoli growth: 0.68; UCH37 inh: 4.3

Next part; the last two above are carried over.
Results for NC(=O)CSc1nc(C23CC4CC(CC(C4)C2)C3)nc2ccccc12 ?
Vif TR-FRET: 1%; RanGTP-Imp inh: -1.0; FGF22 binding: inactive; HNF4A DNA FP: 1.1; AF4-AF9 inh: -2.6; Ecoli growth: 0.65; UCH37 inh: 0.9

Results for CN(C)CCN(C(=O)c1ccc(S(=O)(=O)N2CCCC2)cc1)c1nc2ccc(Br)cc2s1 ?
RanGTP-Imp inh: 1.8; FGF22 binding: inactive; HNF4A DNA FP: 1.8; AF4-AF9 inh: 3.7; Ecoli growth: 0.68; UCH37 inh: 4.3

Results for CCNC(=S)N1CCN(Cc2ccccc2)CC1 ?
Vif TR-FRET: -4%; RanGTP-Imp inh: -4.1; FGF22 binding: inactive; HNF4A DNA FP: 0.7; AF4-AF9 inh: -1.6; Ecoli growth: 0.66; UCH37 inh: 3.7

What do the screens show for `Cc1ccc(OCCCC(=O)Nc2nc3ccccc3[nH]2)cc1`?
RanGTP-Imp inh: -2.7; FGF22 binding: inactive; HNF4A DNA FP: 0.9; AF4-AF9 inh: 0.3; Ecoli growth: 0.69; UCH37 inh: -0.6

How did C[C@@H]1CN([C@H](C)CO)C(=O)Cc2cc(NC(=O)CCC(F)(F)F)ccc2O[C@@H]1CN(C)C(=O)NC1CCCCC1 do in these assays?
FGF22 binding: inactive; HNF4A DNA FP: -0.5; AF4-AF9 inh: -3.1; UCH37 inh: 1.2

Results for O=C(Nc1cccc(OC(F)(F)F)c1)C1Cc2c(-c3ccccc3Oc3ccccc3)ccnc2O1 (stereo not drawn) ?
FGF22 binding: inactive; HNF4A DNA FP: -3.3; AF4-AF9 inh: 3.2

What do the screens show for `O=C(Nc1ccc2c(c1)CCC2)c1ccccc1Br`?
Vif TR-FRET: -2%; RanGTP-Imp inh: 0.8; FGF22 binding: inactive; HNF4A DNA FP: 2.7; AF4-AF9 inh: -0.5; Ecoli growth: 0.71; UCH37 inh: 1.9

What do the screens show for `C=CCSc1nc2c(c(=O)[nH]c(=O)n2C)n1C(C)C`?
Vif TR-FRET: 10%; RanGTP-Imp inh: 5.9; HNF4A DNA FP: 0.6; Ecoli growth: 0.7; UCH37 inh: 0.7

Results for COc1cc2c(cc1OC)/C(=C/C(=O)c1ccc(OC)c([N+](=O)[O-])c1)NCC2 ?
RanGTP-Imp inh: 1.3; FGF22 binding: inactive; HNF4A DNA FP: 2.5; AF4-AF9 inh: -0.3; Ecoli growth: 0.69; UCH37 inh: 4.1

What do the screens show for `C=CCNC(=O)c1onc(CS(=O)(=O)c2cc(C)cc(C)c2)c1C(=O)NCC=C`?
RanGTP-Imp inh: -2.5; FGF22 binding: inactive; HNF4A DNA FP: 1.8; AF4-AF9 inh: 0.2; Ecoli growth: 0.77; UCH37 inh: 4.5

Results for O=C(N[C@H]1C=C[C@H](CC(=O)N2CCCCC2)O[C@@H]1CO)c1cccc(F)c1 ?
FGF22 binding: inactive; HNF4A DNA FP: 4.4; AF4-AF9 inh: -38&-1.3

Results for CN(c1ccc(OCC(=O)NCCc2ccccc2)cc1)S(=O)(=O)c1ccc(Cl)cc1 ?
Vif TR-FRET: -8%; RanGTP-Imp inh: -2.2; FGF22 binding: inactive; HNF4A DNA FP: 1.6; AF4-AF9 inh: -8.7; Ecoli growth: 0.69; UCH37 inh: 1.9

What do the screens show for `Cc1cccc(C)c1NC(=O)C1c2cccc[n+]2CC(=O)N1Cc1ccc2c(c1)OCO2` (stereo not drawn)?
RanGTP-Imp inh: 3.6; FGF22 binding: inactive; HNF4A DNA FP: 9.0; AF4-AF9 inh: -3.1; Ecoli growth: 0.69; UCH37 inh: 0.1

How did CC(=O)Nc1ccc(NS(=O)(=O)c2ccc(CN3C(=O)c4cccnc4C3=O)cc2)cc1 do in these assays?
RanGTP-Imp inh: 2.0; FGF22 binding: inactive; HNF4A DNA FP: -3.8; AF4-AF9 inh: 0.7; Ecoli growth: 0.71; UCH37 inh: 3.1

Results for CN(C)c1ccc(C(=O)C(O)c2ccccc2)cc1 (stereo not drawn) ?
RanGTP-Imp inh: -3.9; HNF4A DNA FP: 1.0; Ecoli growth: 0.7; UCH37 inh: 9.8

What do the screens show for `COC(=O)c1cc(/C=C/c2ccccc2)on1`?
Vif TR-FRET: 3%; RanGTP-Imp inh: 9.1; HNF4A DNA FP: 4.2; Ecoli growth: 0.64; UCH37 inh: -1.7

How did O=C(OC1CCCCC1=O)c1cccc(S(=O)(=O)NCc2ccccc2)c1 (stereo not drawn) do in these assays?
Vif TR-FRET: 0%; RanGTP-Imp inh: 0.4; HNF4A DNA FP: 3.7; Ecoli growth: 0.67; UCH37 inh: 3.3

How did Cc1ccc(S(=O)(=O)c2cn(C)c3cc(N4CCN(C)CC4)c(F)cc3c2=O)c(C)c1 do in these assays?
Vif TR-FRET: -8%; RanGTP-Imp inh: inconclusive; FGF22 binding: inactive; HNF4A DNA FP: 3.0; AF4-AF9 inh: 1.7; Ecoli growth: 0.69; UCH37 inh: -66

What do the screens show for `COCCNC(=O)c1ccc(S(=O)(=O)N2CCCc3ccccc32)cc1`?
RanGTP-Imp inh: -6.4; FGF22 binding: inactive; HNF4A DNA FP: -0.6; AF4-AF9 inh: -1.5; Ecoli growth: 0.69; UCH37 inh: 2.9

Results for COc1ccc(C(C(=O)NC2CCCCC2)N(CC2CCCO2)C(=O)CCCC(=O)Nc2ccccn2)cc1 (stereo not drawn) ?
RanGTP-Imp inh: -1.6; FGF22 binding: inactive; HNF4A DNA FP: 0.4; AF4-AF9 inh: -5.0; Ecoli growth: 0.67; UCH37 inh: -0.9

What do the screens show for `CCCCn1nc(C(=O)N(CCOC)c2c(N)n(CCCC)c(=O)[nH]c2=O)c2ccccc2c1=O`?
Vif TR-FRET: 9%; FGF22 binding: inactive; HNF4A DNA FP: -0.7; AF4-AF9 inh: -1.8; Ecoli growth: 0.65; UCH37 inh: 1.2

What do the screens show for `O=C(CN1CCN(C(=O)c2ccco2)CC1)Nc1ccc(Cl)c(C(F)(F)F)c1`?
Vif TR-FRET: 2%; HNF4A DNA FP: -3.3; Ecoli growth: 0.73; UCH37 inh: 4.8

Results for CCN(CC)CCNC(=O)CCCCn1c(=S)[nH]c2c([nH]c3ccc(OC)cc32)c1=O ?
Vif TR-FRET: -11%&-5%; RanGTP-Imp inh: -1.6; Ecoli growth: 0.67; UCH37 inh: -35

How did CCCc1nc2oc3cc(OC)ccc3c(=O)c2c(=O)n1Cc1ccco1 do in these assays?
Vif TR-FRET: inconclusive; RanGTP-Imp inh: -8.5; HNF4A DNA FP: -5.6; Ecoli growth: 0.69; UCH37 inh: 3.3

What do the screens show for `Cc1ccc(C(=O)NCC#N)cc1`?
Vif TR-FRET: 1%; RanGTP-Imp inh: 1.6; FGF22 binding: inactive; HNF4A DNA FP: -6.7; AF4-AF9 inh: -0.8; Ecoli growth: 0.68; UCH37 inh: 5.1

What do the screens show for `CC1=C(C(=O)N2CCCC(N3CCN(c4ccccc4C)CC3)C2)OCCO1` (stereo not drawn)?
RanGTP-Imp inh: 0.4; FGF22 binding: inactive; HNF4A DNA FP: 0.9; AF4-AF9 inh: 0.7; Ecoli growth: 0.71; UCH37 inh: 2.3

What do the screens show for `CC1(C)Cc2c(c(N3CCOCC3)nc3sc(C#N)c(N)c23)CS1`?
Vif TR-FRET: -10%; RanGTP-Imp inh: 5.9; HNF4A DNA FP: -3.4; Ecoli growth: 0.74; UCH37 inh: -69

How did CCOc1ccc(C(=O)N(CC(=O)Nc2cccc(C)c2C)CC2CCCO2)cc1OC (stereo not drawn) do in these assays?
FGF22 binding: inactive; HNF4A DNA FP: 1.9; AF4-AF9 inh: -2.3; Ecoli growth: 0.7; UCH37 inh: 3.8

Results for CCCNC(=O)C1CCN(S(=O)(=O)c2ccc(Br)cc2)CC1 ?
Vif TR-FRET: 5%; RanGTP-Imp inh: 1.9; HNF4A DNA FP: -0.9; Ecoli growth: 0.71; UCH37 inh: -1.1

Two entries picked at random from the list so far, as already listed:
What do the screens show for `COC(=O)C1=C(C)N(Cc2ccccc2)C(=NCCc2cccnc2)N[C@H]1c1ccccc1`?
RanGTP-Imp inh: -1.0; HNF4A DNA FP: 4.8; UCH37 inh: -1.0

How did C[C@@H]1CN([C@H](C)CO)C(=O)Cc2cc(NC(=O)CCC(F)(F)F)ccc2O[C@@H]1CN(C)C(=O)NC1CCCCC1 do in these assays?
FGF22 binding: inactive; HNF4A DNA FP: -0.5; AF4-AF9 inh: -3.1; UCH37 inh: 1.2

Not all compounds are listed (hit frequency here may not be typical).
